High-throughput results deposited in PubChem by National Center for Advancing Translational Sciences (NCATS).
VACV mCherry inh – inhibitors of vaccinia virus infection (mCherry reporter signal). Vaccinia virus mCherry reporter infection, fluorescence; about a quarter of the inactives have no number. actives 0.63% (n = 310,000). Potency, µM (titrated, usually from 36.5 µM), without a hit: top-dose activity change, negative = inhibition, actives largely listed as inhibitors; active = well fitted inhibition curve with a large enough effect; inconclusive = small, poorly fitted or top-dose-only effect; inactive = no such curve, though single readings can be large or run the other way; tested in A549 cells; also: nearly all actives have a fitted effect of over 35% in size; inactives centre near -10
Vaccinia Venus – inhibitors of vaccinia virus (Venus reporter) | Vaccinia virus Venus reporter expression, fluorescence | Potency, µM (series often up to 36.5 µM), without a hit: at the top dose activity change, negative = inhibition, usual class: inhibitors | actives 0.46% (n = 330,000) | AID 720580; active means well fitted inhibition curve with a large enough effect; inconclusive means small, poorly fitted or top-dose-only effect; inactive means no such curve, though single readings can be large or run the other way; tested in A549 cells; also: nearly all actives have a fitted effect of over 30% in size; inactives centre near -10
* hit, by the source's call; i = inactive; u = inconclusive; x = not tested or not shown; & = joins results of further samples; [ ] = another dose, or the depositor's remark. % is scaled to controls: 0 for no effect and ±100 for the full control effect; potency is read from the fitted curve at half-maximal effect.

SMILES | VACV mCherry inh | Vaccinia Venus
CC(=O)c1cccc(NC(=O)COC(=O)CCC(=O)c2ccc(F)cc2)c1 | -11.7% | -10.7%
O=C(OCc1ccc(Cl)cc1Cl)c1cccnc1Cl | 1.4% | 11.0%
O=C(Nc1ccc2nc3n(c(=O)c2c1)CCCCC3)c1c(F)ccc([N+](=O)[O-])c1F | u | u
Cc1ccc2cc(CN(CCCN(C)C)C(=S)NCc3ccccc3)c(=O)[nH]c2c1C | -4.9% | -15.4%
Cc1ccc2ccccc2[n+]1CCCS(=O)(=O)[O-] | 2.6% | 5.8%
COc1ccccc1NC(=O)c1ccc(NC(=O)CN2C(=O)CN(C)C2=O)cc1 | i | 3.7%
Cc1ccc(C(=O)Nc2ccc3oc(-c4cc(Br)ccc4Cl)nc3c2)cc1 | -24.8% | -22.0%
Oc1ccc2c3c1OC1c4[nH]c5ccccc5c4C[C@@]4(O)C(C2)N(CC2CC2)CC[C@]314 (stereo partly drawn) | -7.8% | -22.1%
CCC(=O)N1CCN(c2ccccc2NC(=O)COc2cc(C)ccc2C(C)C)CC1 | -4.4% | -24.5%
CCOC(=O)C1=C(O)/C(=C\c2cc(C)n(-c3ccc(F)cc3)c2C)N=C1C | -7.7% | 69.8%[activator]
CN(C)N=Nc1nc[nH]c1C(N)=O | i | -6.6%
O=C(Cc1ccccc1[N+](=O)[O-])NCc1ccc(Cl)cc1Cl | -17.6% | -15.5%
CCOc1ccc(N2CC(C(=O)N3CCCCC3)CC2=O)cc1 (stereo not drawn) | -4.9% | 1.7%
Oc1ccccc1CNc1cccc2cccnc12 | -1.8% | 9.0%
CN(C(=O)CSc1nnc2n1CCCCC2)C1(C#N)CCCCC1 | -12.8% | -1.7%
O=C(NNC(=O)C1CCCCC1)C(=O)NC1CCCCC1 | i | -4.9%
COc1ccccc1OCc1nc(C#N)c(N2CCCC2)o1 | i | -5.7%
CCOC(=O)Cc1c(-c2cccc(Br)c2)nc2c3ccccc3ccn12 | 16.5% | -1.4%
O=C1CCN(C2CCN(Cc3nc(Cc4ccccc4F)no3)CC2)CCN1 | i | -14.5%
CCCNC(=O)C1(C)CCN(C(=O)c2ccc(C)c(F)c2)C1 (stereo not drawn) | 3.8% | -0.5%
CN1CCN(C(=O)CN(c2cccc(Cl)c2)S(=O)(=O)c2ccccc2)CC1 | -11.6% | -16.4%
O=C(O)CC/C(=C\c1ccc2c(c1)OCO2)c1nc2ccccc2s1 | i | -15.1%
CNC(=O)CC1C(=O)N(Cc2ccccc2)C(=S)N1NC(=O)c1cccc(F)c1 (stereo not drawn) | -10.5% | -6.1%
Cc1ccc(NC(=O)Cn2c(=O)n(Cc3ccc4c(c3)OCO4)c(=O)c3oc4ccccc4c32)cc1C | i | -11.6%
CCC(=O)Nc1ccccc1C(=O)NC1CCCCC1 | i | -0.8%
COc1ccc(COc2cc(-c3cccc(OC)c3)nc3ccc(NC(C)=O)cc23)cc1 | -17.4% | -27.8%
CC(C)CNC(=O)NC1C(NC(=O)NCC(C)C)N(C)C(=O)N1C (stereo not drawn) | x | -24.3%
Cc1ccc(C(=O)N/N=C\c2cccc(OC(=O)c3cccc(F)c3)c2)cn1 | u | -3.6%
CCC(=O)N1CCN(c2cc3c(cc2F)c(=O)c(C(=O)O)cn3CC)CC1 | i | -5.4%
O=C(Oc1cccc(-n2cnnn2)c1)c1ccccc1Cl | i | 2.4%
COC(=O)c1cc(=O)n(Cc2cccs2)c(=NCc2cccs2)s1 | -10.0% | -7.8%
CN(C)CCCNc1nc2cc(-c3ccccc3CO)sc2c(=O)n1C | -5.9% | -13.3%
Cc1cccc(C)c1OC(=O)CSc1nnc(-c2ccc3c(c2)OCO3)o1 | -19.2% | -13.8%
CCCCc1nn2c(=O)cc(COC(=O)c3ccc(NC(=O)C4CCCCC4)cc3)nc2s1 | -9.2% | -1.4%
O=C(O)CCC(=O)Nc1nc(-c2ccccc2)cs1 | -16.6%[1.46 µM] | -6.8%
O=C(O)CC12CC3CC(C1)CC(n1cncn1)(C3)C2 | i | -8.1%
O=C(CSc1nc2c(c(=O)[nH]1)CN(Cc1ccc(F)cc1)CC2)Nc1cccc(C(F)(F)F)c1 | -19.2% | -4.2%
O=C(Cn1c(=O)n(CC2CCCO2)c(=O)c2ccccc21)Nc1cccc(Cl)c1 (stereo not drawn) | -10.3% | -4.1%
COc1ccc2c(c1OC)C(=O)N1C2SC(C)(C)[C@H]1C(=O)NC1CC1 (stereo partly drawn) | -3.0% | 3.4%
CSc1nc(-c2ccc(Cl)cc2)nn1S(=O)(=O)c1ccc(Cl)cc1 | -21.0% | -16.7%
O=C(NCCc1ccccc1)c1cccc(NC(=O)C2CCC2)c1 | -3.0% | 3.1%
Cc1cc(NC(=O)CSc2ncccc2C(=O)O)no1 | -6.8% | -1.6%
O=C(CCNC(=O)c1ccccc1)Nc1ccc(S(=O)(=O)Nc2ncccn2)cc1 | -5.2% | 7.7%
CC1CCCN(S(=O)(=O)c2ccc3c(c2)c(=O)nc2ccccn23)C1 (stereo not drawn) | -13.9%&-0.4% | -15.3%&-9.7%
COc1ccc(NC(=O)CSc2nc3ccccc3n2CC(=O)N(C)c2ccc(F)cc2)cc1 | 0.9% | -3.4%

An excerpt taken from the entries so far, as a working copy:
SMILES | VACV mCherry inh | Vaccinia Venus
CC(=O)c1cccc(NC(=O)COC(=O)CCC(=O)c2ccc(F)cc2)c1 | -11.7% | -10.7%
O=C(OCc1ccc(Cl)cc1Cl)c1cccnc1Cl | 1.4% | 11.0%
O=C(Nc1ccc2nc3n(c(=O)c2c1)CCCCC3)c1c(F)ccc([N+](=O)[O-])c1F | u | u
Cc1ccc2cc(CN(CCCN(C)C)C(=S)NCc3ccccc3)c(=O)[nH]c2c1C | -4.9% | -15.4%
Cc1ccc2ccccc2[n+]1CCCS(=O)(=O)[O-] | 2.6% | 5.8%
COc1ccccc1NC(=O)c1ccc(NC(=O)CN2C(=O)CN(C)C2=O)cc1 | i | 3.7%

The listing continues:
SMILES | VACV mCherry inh | Vaccinia Venus
Cc1ccc(S(=O)(=O)N2CCCCC2)cc1NC(=O)C1CCCO1 (stereo not drawn) | -7.8% | -4.2%
Cc1ccc(CN2CCCC(C(=O)N3CCCC3)C2)cc1 (stereo not drawn) | -9.2% | -4.1%
Cn1ncc(Cl)c1C(=O)Nc1nc2ccc(Cl)cc2s1 | -9.7% | -26.1%
Oc1c(N=Nc2nn[nH]n2)ccc2ccccc12 | u | u
Cc1ccc(NC(=O)CSc2ncc3c(n2)-c2ccccc2N(Cc2cccc(F)c2)S3(=O)=O)cc1F | 13.1% | 10.7%
COc1ccccc1CNC(=O)COC(=O)c1ccc(C)c(S(=O)(=O)N2CCOCC2)c1 | i | 1.5%
COc1ccc(S(=O)(=O)N2CCOCC2)cc1NC(=O)[C@@H]1CCCN1C(=O)c1cccs1 | i | -3.4%
C=CCSc1nsc(NC(=O)Nc2ccc(F)cc2)n1 | -25.1% | u
CC(=O)NC(CC(=O)O)C(=O)O (stereo not drawn) | 9.8% | -4.9%&6.4%
COc1ccc(NS(=O)(=O)c2cccc(NC(=O)c3ccc(Cl)nc3)c2)cc1 | -10.7% | u
COc1cc(NC(=O)c2cnc(N)o2)cc(C(=O)Nc2cccc(C(F)(F)F)c2)c1 | -26.0%&-19.6% | u
COc1ccc(C2=C(C=C(C#N)C#N)C(c3ccccc3C)c3ccccc3O2)cc1OC (stereo not drawn) | u | -21.5%
COc1ccc2c(c1OC)C(=O)N(c1ccc(C)cc1)C2 | i[7.34 µM] | 5.4%[7.34 µM]
CCCCNC(=O)c1ccc2c(c1)N(Cc1ccc(F)cc1)C(=O)c1ccccc1S2=O (stereo not drawn) | -2.9% | -11.5%
CCC[C@@H](NS(=O)(=O)c1ccc(C)cc1)C(=O)Oc1ccc2c3c(c(=O)oc2c1)CCC3 | -19.5% | -18.2%
CCC(C)C(NC(=O)OCc1ccccc1)C(=O)OCN1C(=O)c2ccccc2C1=O (stereo not drawn) | -6.7% | -7.5%
COc1ccc(NC(=O)c2cc(-c3ccc(F)cc3OC)n[nH]2)cc1OC | 13.0% | -13.8%
COC(=O)[C@]1(C)N[C@H](CN(C)C(=O)Nc2ccccc2)[C@@H]2C(=O)N(C)C(=O)[C@@H]21 | -17.2% | -3.2%
CCOc1ccc(CCNC(=O)COC(=O)Cc2c[nH]c3ccccc23)cc1OCC | -10.1% | -3.3%
CCOC(=O)C1C(=O)CC(O)(c2ccccc2)CC1c1ccccc1 (stereo not drawn) | x | -23.2%
COc1ccccc1/C=C/C(=O)OC(C)CN1CCCCC1 (stereo not drawn) | i | -14.6%
CC(=O)Oc1cccc(/C=N\NC(=O)C(=O)N/N=C/c2cccc(OC(C)=O)c2)c1 | -10.8% | -5.7%
O=C(NN=C1C2CC3CC(C2)CC1C3)c1ccccc1O | u | -14.3%
O=C(NCCc1c[nH]c2ccccc12)c1c(Cl)nc2sccn12 | x | -19.3%
COc1ccc(N2C(C)=CS/C2=C(/C#N)c2nnc(N3CCOCC3)n2-c2ccccc2)cc1 | -2.5% | -24.2%
COc1ccc(C)cc1NC(=O)C1CCN(S(=O)(=O)Cc2ccccc2)CC1 | -8.1% | -3.7%
COc1ccccc1N1CCN(C(=O)c2cccc(S(=O)(=O)N3c4ccccc4CC3C)c2)CC1 (stereo not drawn) | i | -21.9%
COc1cccc(NC(=S)NCc2ccccn2)c1 | -14.3% | -13.1%
COc1ccc(S(=O)(=O)NC2CCCCC2)c(C)c1C | x | -16.7%
O=C1CC2(CCCC2)Oc2ccc(Cl)cc21 | i | -2.2%

In the list so far, two contain bromine.
SMILES | VACV mCherry inh | Vaccinia Venus
Cc1ccc(C(=O)Nc2ccc3oc(-c4cc(Br)ccc4Cl)nc3c2)cc1 | -24.8% | -22.0%
CCOC(=O)Cc1c(-c2cccc(Br)c2)nc2c3ccccc3ccn12 | 16.5% | -1.4%

Next section.
SMILES | VACV mCherry inh | Vaccinia Venus
Cc1ccc(-n2c(SCC(=O)N3CCOCC3)nc(O)c(Cc3ccccc3)c2=O)cc1 | i | -3.3%
CCOCCCNC(=O)C1c2cc(OC)c(OC)cc2C(=O)N2CCCCC12 (stereo not drawn) | -9.3% | -16.4%
COc1ccccc1C(CNC(=O)COc1cc(C)ccc1Cl)N1CCCC1 (stereo not drawn) | -15.0% | -9.9%
Cc1ccc(NC(=O)CSCC(=O)NC2=NCCS2)cc1 | -12.1% | -9.6%
Cn1c(=O)c2c(nc(Br)n2Cc2ccccc2Cl)n(C)c1=O | x | 8.5%
CN(C)c1ccc(-c2ccnc3c2CC(C)(C(=O)NCCC(F)(F)F)O3)cc1 (stereo not drawn) | u | -26.8%
CCN(c1ccccc1)c1nc(N)nc(C#N)n1 | -18.9% | -9.4%
O=C(c1ccco1)N1C(=O)c2cccc3c(S(=O)(=O)N4CCCC4)ccc1c23 | x | -8.4%
O=C(/C=C/c1ccc(F)cc1)c1cc(Br)ccc1O | 11.7% | 2.9%
O=C(Nc1nc2c(s1)CCc1ccccc1-2)c1cccs1 | x | u
Nc1cc(=O)[nH]c(SCC(=O)N2CCCCC2)n1 | 0.8% | -9.0%
Cc1nc2ccccc2c(=O)n1/N=C/c1ccccn1 | -11.1% | -2.0%
CCN(CC)C(=O)C1CCCN(C(=S)Nc2cccc3ccccc23)C1 (stereo not drawn) | -6.4% | -17.6%
COc1ccc(-n2c(O)c(/C=N/NS(=O)(=O)c3cccc([N+](=O)[O-])c3)c3ccccc3c2=O)cc1OC | i | x
COc1ccc(CN2C(=O)C(CC(=O)NC(c3ccccc3)c3ccccc3)CC(C(=O)N(C)C)=C2C)cc1 (stereo not drawn) | i | -19.5%

Reformatted: results already given.
Structure,VACV mCherry inh,Vaccinia Venus
COc1ccccc1N1CCN(C(=O)c2cccc(S(=O)(=O)N3c4ccccc4CC3C)c2)CC1 (stereo not drawn),i,-21.9%
COc1cccc(NC(=S)NCc2ccccn2)c1,-14.3%,-13.1%

Other records:
SMILES | VACV mCherry inh | Vaccinia Venus
c1cncc(CNc2c3c(nc4nnnn24)CCCC3)c1 | -15.4% | -9.0%
CCOC(=O)c1nnn(-c2nonc2N)c1CSc1ccc(C)cc1 | -15.6% | -17.3%
CCOC(=O)c1c(C)[nH]c(C)c1S(=O)(=O)N1CCCC(C(=O)Nc2ncccc2C)C1 (stereo not drawn) | -2.0% | 8.4%
Nc1sc(-c2ccccc2)cc1C(=O)NCCc1c[nH]c2ccccc12 | u | -38.5%
CC1=C(C(=O)N(C(C)C)C(C)C)CC(CC(=O)NC2CCCCC2)C(=O)N1CCCN1CCCC1=O (stereo not drawn) | 5.9% | -1.8%
Cc1ccccc1-n1nc(C)c2c1NC(=O)CSC2c1ccc(Cl)cc1 (stereo not drawn) | -7.1% | -3.8%
COc1cc2c(cc1OC)CN(Cc1cc(OC)c3c(c1)OCO3)CC2 | i | -4.0%
Cc1ccc(-c2cn3nc(-c4ccccc4)c(-c4ccccc4)nc3n2)cc1 | -22.7% | -7.9%
O=C(CSc1n[nH]c(-c2ccccn2)n1)Nc1cccc(Cl)c1 | u | -23.5%
Cc1nccn1CC(=O)N/N=C/c1cccs1 | -2.0% | -1.6%
O=C(O)Cc1ccc(NCc2ccccc2Cl)cc1 | i | -2.1%
CC1=NNC(=O)C1CCC(=O)N/N=C/c1ccccc1 (stereo not drawn) | -12.1% | -5.1%
COc1cccc(/C=C2\SC(=S)N(CCCC(=O)N3CCCC3)C2=O)c1 | u | u
Cc1ccc(OCC(=O)Nc2ccc(NC(=O)c3cccs3)cc2)c(C)c1 | u | u
COC(=O)c1ccc(OC)c(OC)c1Cl | -15.8% | -13.3%
N=C(N)c1ccc(O)cc1 | -1.4% | -0.4%
